Screening results deposited in PubChem by Broad Institute.
A1 apoptosis 2: compounds inhibiting A1, read as caspase activation; caspase activation, % (no concentration beside the values); MEF A1-2A-BIM cells, caspase-Glo luminescence, 3 h; percent of clofoctol response, DMSO zero; AID 2465; 24,000 tested, under 10 active; in the data active means caspase activation above about 5.9%;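 further: wells of about 30 µL received 50 nL stock; the first replicate is given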
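Evaluation: Caspase-3/7 activity from luminescence increase | Assay system: A1-2A-BIM mouse embryonic fibroblasts | Quantity: 2500 MEF cells/well | Medium: RPMI-1640 plus 10% FBS | Detection: Caspase-Glo 3/7 luminescence, 1 h at room temperature | Dosing: 50 nL compound per well, pinned | Timing: Cells settled overnight, compound exposure 3 h at 37 °C, 5% CO2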
* hit, by the source's call; & = joins results of further samples. A portion of the library; count on the stated rates, not on these rows.

SMILES | A1 apoptosis 2
C[C@@H]1CN([C@@H](C)CO)C(=O)c2cc(NS(=O)(=O)c3ccc(F)cc3)ccc2O[C@@H]1CN(C)Cc1ccc(C(=O)O)cc1 | 2.0
COc1ccc(S(=O)(=O)N(C)C[C@@H]2OCCCC[C@H](C)Oc3ccc(NC(=O)Nc4ccc5c(c4)OCO5)cc3C(=O)N([C@H](C)CO)C[C@H]2C)cc1 | -0.2
CC(C)NC(=O)N(C)C[C@H]1Oc2ccc(NC(=O)C3CC3)cc2CC(=O)N([C@@H](C)CO)C[C@H]1C | -0.7
C[C@H]1CCCCO[C@H](CN(C)Cc2ccc3c(c2)OCO3)[C@@H](C)CN([C@@H](C)CO)C(=O)c2cc(NS(=O)(=O)c3ccccc3)ccc2O1 | 0.7
CNC[C@@H]1Oc2ccc(NC(=O)Cn3cnnn3)cc2CC(=O)N([C@@H](C)CO)C[C@H]1C | 0.9
Cc1noc(C)c1NC(=O)N(C)C[C@@H]1OCCCC[C@H](C)Oc2ccc(NC(=O)CCC(F)(F)F)cc2C(=O)N([C@H](C)CO)C[C@@H]1C | 0.7
Cc1ccc(S(=O)(=O)Nc2ccc3c(c2)C(=O)N([C@@H](C)CO)C[C@H](C)[C@H](CN(C)Cc2ccc(C(=O)O)cc2)OCCCC[C@H](C)O3)cc1 | -0.7
Cc1noc(C)c1NC(=O)Nc1ccc2c(c1)C(=O)N([C@H](C)CO)C[C@H](C)[C@@H](CN(C)S(=O)(=O)c1ccc(Cl)cc1)O2 | 1.5
Cc1ccc(S(=O)(=O)N(C)C[C@@H]2Oc3ccc(NC(=O)CCCN(C)C)cc3C(=O)N([C@@H](C)CO)C[C@@H]2C)cc1 | 1.3
C[C@@H]1CN([C@H](C)CO)C(=O)c2cc(NS(=O)(=O)c3cccs3)ccc2O[C@@H](C)CCCCO[C@H]1CN(C)S(=O)(=O)c1ccc(Cl)cc1 | 0.6
C[C@@H]1CCCCO[C@@H](CN(C)C(=O)Nc2ccc3c(c2)OCO3)[C@H](C)CN([C@@H](C)CO)C(=O)c2cc(NS(=O)(=O)c3ccc(F)cc3)ccc2O1 | 1.2
COc1ccc(S(=O)(=O)Nc2ccc3c(c2)CC(=O)N([C@@H](C)CO)C[C@H](C)[C@H](CN(C)CC2CCCCC2)O3)cc1 | -0.1
C[C@H](CO)N1C[C@H](C)[C@H](CN(C)Cc2ccc(C(F)(F)F)cc2)Oc2ccc(NS(=O)(=O)c3ccc(F)cc3)cc2C1=O | 0.6
C[C@@H]1CN([C@H](C)CO)C(=O)c2cc(NC(=O)C3CCCCC3)ccc2O[C@@H]1CN(C)Cc1ccc(C(F)(F)F)cc1 | -1.1
C[C@@H]1CN([C@H](C)CO)C(=O)c2cccc(N(C)C)c2O[C@@H]1CN(C)Cc1ccc(Cl)c(Cl)c1 | 1.9
Cc1noc(C)c1S(=O)(=O)Nc1ccc2c(c1)C(=O)N([C@@H](C)CO)C[C@H](C)[C@H](CN(C)C)OCCCC[C@H](C)O2 | 0.2
C[C@@H]1CN([C@@H](C)CO)C(=O)c2cc(NC(=O)c3ccncc3)ccc2O[C@@H](C)CCCCO[C@H]1CN(C)C(=O)C1CCCCC1 | -0.4
Cc1noc(C)c1S(=O)(=O)Nc1cccc2c1O[C@H](CN(C)Cc1ccc(C(F)(F)F)cc1)[C@H](C)CN([C@H](C)CO)C2=O | -0.7
COc1ccc(NC(=O)N(C)C[C@@H]2Oc3c(NC(=O)C4CCOCC4)cccc3C(=O)N([C@@H](C)CO)C[C@@H]2C)cc1 | -1.5
C[C@@H]1CN([C@@H](C)CO)C(=O)Cc2cc(NS(=O)(=O)c3cccs3)ccc2O[C@H]1CN(C)C(=O)Nc1ccccc1 | 0.4

Look-ups from the entries so far:
Entry of `C[C@@H]1CN([C@@H](C)CO)C(=O)c2cc(NC(=O)c3ccncc3)ccc2O[C@@H](C)CCCCO[C@H]1CN(C)C(=O)C1CCCCC1` under A1 apoptosis 2: -0.4
Entry of `COc1ccc(S(=O)(=O)N(C)C[C@@H]2OCCCC[C@H](C)Oc3ccc(NC(=O)Nc4ccc5c(c4)OCO5)cc3C(=O)N([C@H](C)CO)C[C@H]2C)cc1` under A1 apoptosis 2: -0.2

(continued)
SMILES | A1 apoptosis 2
COc1ccc(NC(=O)Nc2cccc3c2O[C@H](CN(C)S(=O)(=O)c2cn(C)cn2)[C@H](C)CN([C@H](C)CO)C3=O)cc1 | -0.4
C[C@@H]1CN([C@H](C)CO)C(=O)c2cccc(NC(=O)NC3CCCCC3)c2O[C@@H]1CN(C)S(=O)(=O)c1cccs1 | -1.2
CC(C)NC(=O)N(C)C[C@@H]1Oc2ccc(NC(=O)c3ccncc3)cc2C(=O)N([C@@H](C)CO)C[C@H]1C | -0.6
COc1ccc(NC(=O)Nc2ccc3c(c2)C(=O)N([C@H](C)CO)C[C@H](C)[C@@H](CN(C)S(=O)(=O)c2ccc(Cl)cc2)O3)cc1 | 0.6
COc1ccc(S(=O)(=O)N(C)C[C@H]2Oc3ccc(NS(=O)(=O)c4ccc(F)cc4)cc3CC(=O)N([C@@H](C)CO)C[C@H]2C)cc1 | -0.1
COc1ccc(NC(=O)N(C)C[C@H]2OCCCC[C@H](C)Oc3ccc(NC(=O)c4ccccc4)cc3C(=O)N([C@H](C)CO)C[C@H]2C)cc1 | 0.1
COc1ccc(NC(=O)Nc2ccc3c(c2)C(=O)N([C@@H](C)CO)C[C@@H](C)[C@H](CN(C)S(C)(=O)=O)O3)cc1 | 0.9
COc1ccc(S(=O)(=O)Nc2ccc3c(c2)C(=O)N([C@@H](C)CO)C[C@@H](C)[C@@H](CN(C)C(=O)NC2CCCCC2)O3)cc1 | -0.7
C[C@@H]1CCCCO[C@H](CN(C)Cc2ccncc2)[C@H](C)CN([C@H](C)CO)C(=O)c2cc(NC(=O)Nc3ccccc3)ccc2O1 | 0.3
C[C@H]1CN([C@@H](C)CO)C(=O)Cc2cc(NC(=O)CCC(F)(F)F)ccc2O[C@H]1CN(C)Cc1ccc(C(=O)Nc2ccccc2N)cc1 | 0.6
C[C@@H]1CN([C@H](C)CO)C(=O)c2cccc(NC(=O)Nc3ccccc3)c2O[C@H]1CN(C)S(=O)(=O)c1ccccc1 | 0.5
C[C@@H]1CCCCO[C@H](CN(C)Cc2ccc(C(F)(F)F)cc2)[C@H](C)CN([C@H](C)CO)C(=O)c2cc(NC(=O)Nc3ccccc3)ccc2O1 | -0.2
C[C@H](CO)N1C[C@H](C)[C@@H](CN(C)Cc2ccc(C(=O)O)cc2)OCc2cnnn2CCCC1=O | 0.4
COC(=O)C(CC#Cc1ccc2c(c1)[C@]1(C(=O)N2)[C@H](C(=O)N2CCN(c3ncccn3)CC2)[C@H]2C(=O)O[C@H](c3ccccc3)[C@H](c3ccccc3)N2[C@@H]1c1ccc(OCCO)cc1)C(=O)OC | 0.4
C[C@H]1CN([C@@H](C)CO)C(=O)c2cccc(N(C)C)c2O[C@H]1CN(C)Cc1ccncc1 | -0.8
Cc1noc(C)c1S(=O)(=O)Nc1ccc2c(c1)C(=O)N([C@H](C)CO)C[C@@H](C)[C@@H](CN(C)Cc1ccc(C(=O)Nc3ccccc3N)cc1)O2 | -0.3
CO[C@H]1O[C@H](CO)[C@@H](OC(=O)Nc2ccc3c(c2)OCO3)[C@H](OC(=O)Nc2ccccc2)[C@H]1OC(=O)Nc1ccccc1 | 1.7
O=C(CCCCC(=O)N/N=C/c1ccc(I)cc1)NO | -1.1
C[C@@H]1CN([C@@H](C)CO)C(=O)c2cc(NC(=O)CCC(F)(F)F)ccc2O[C@@H](C)CCCCO[C@@H]1CN(C)C(=O)C1CCCCC1 | 0.1
Cc1noc(C)c1NC(=O)N(C)C[C@@H]1OCCCC[C@H](C)Oc2ccc(NC(=O)Nc3cccc4ccccc34)cc2C(=O)N([C@@H](C)CO)C[C@H]1C | -0.4
C[C@@H]1CN([C@@H](C)CO)C(=O)c2cc(NC(=O)NC3CCCCC3)ccc2O[C@@H](C)CCCCO[C@@H]1CN(C)S(=O)(=O)c1cccs1 | -0.3
Cc1noc(C)c1S(=O)(=O)Nc1ccc2c(c1)C(=O)N([C@@H](C)CO)C[C@@H](C)[C@H](CN(C)S(=O)(=O)c1cccs1)O2 | 0.7
C[C@H](CO)N1C[C@H](C)[C@H](CN(C)Cc2ccc(Cl)c(Cl)c2)OCCCC[C@H](C)Oc2ccc(NS(C)(=O)=O)cc2C1=O | -0.9
CCCNC(=O)COc1ccc(C=O)cc1 | -1.5
C[C@@H]1CN([C@H](C)CO)C(=O)c2cc(NS(C)(=O)=O)ccc2O[C@@H]1CN(C)S(=O)(=O)c1cccs1 | 0.4
Cc1noc(C)c1S(=O)(=O)Nc1ccc2c(c1)C(=O)N([C@H](C)CO)C[C@@H](C)[C@H](CN(C)S(=O)(=O)c1ccc(F)cc1)OCCCC[C@@H](C)O2 | -0.5
Cc1noc(C)c1NC(=O)Nc1ccc2c(c1)C(=O)N([C@@H](C)CO)C[C@H](C)[C@@H](CN(C)C(=O)Nc1ccc(F)cc1)OCCCC[C@@H](C)O2 | -0.3
COc1ccc(CN(C)C[C@@H]2OCCCC[C@H](C)Oc3ccc(NC(=O)Nc4ccc(C(F)(F)F)cc4)cc3C(=O)N([C@H](C)CO)C[C@@H]2C)cc1 | -0.4
Cc1noc(C)c1NC(=O)N(C)C[C@H]1Oc2ccc(NC(=O)NC(C)C)cc2CC(=O)N([C@H](C)CO)C[C@@H]1C | 0.9
C[C@H](CO)N1C[C@H](C)[C@@H](CN(C)S(=O)(=O)c2ccccc2)Oc2ccc(NC(=O)CCN3CCOCC3)cc2CC1=O | -0.2
CC(C)NC(=O)N(C)C[C@@H]1Oc2ccc(N(C)C)cc2CC(=O)N([C@H](C)CO)C[C@@H]1C | -1.0
COc1ccc(-c2cn(CC(=O)N3CCN(C)CC3)nn2)cc1OC | 0.4
C[C@@H]1CN([C@@H](C)CO)C(=O)c2cccc(NC(=O)c3nc4ccccc4s3)c2O[C@@H]1CN(C)Cc1ccc2c(c1)OCO2 | 0.2
Cc1noc(C)c1NC(=O)N(C)C[C@H]1Oc2c(NC(=O)C3CCOCC3)cccc2C(=O)N([C@H](C)CO)C[C@H]1C | 0.1
C[C@@H]1CN([C@H](C)CO)C(=O)Cc2cc(NC(=O)NC3CCCCC3)ccc2O[C@H]1CN(C)Cc1ccncc1 | -1.0
[N-]=[N+]=NCC(=O)N1CCN(c2ccccc2)CC1 | 1.3&-0.5
COc1ccc(S(=O)(=O)N(C)C[C@H]2Oc3ccc(NC(=O)CCCN(C)C)cc3C(=O)N([C@H](C)CO)C[C@@H]2C)cc1 | 0.3
C[C@@H]1CN([C@@H](C)CO)C(=O)c2cccc(NC(=O)c3ccc(-c4nccs4)cc3)c2O[C@@H]1CN(C)Cc1ccccc1 | 0.9
C[C@H](CO)N1C[C@H](C)[C@H](CN(C)Cc2ccc(C(F)(F)F)cc2)Oc2ccc(NC(=O)c3ccncc3)cc2CC1=O | 0.3
Cc1nc(S(=O)(=O)N[C@H]2CCN(Cc3cccc(OCCO)c3)C2)cn1C | 1.2

A different layout for nine compounds above.
Structure	A1 apoptosis 2
COc1ccc(-c2cn(CC(=O)N3CCN(C)CC3)nn2)cc1OC	0.4
C[C@@H]1CN([C@@H](C)CO)C(=O)c2cccc(NC(=O)c3nc4ccccc4s3)c2O[C@@H]1CN(C)Cc1ccc2c(c1)OCO2	0.2
Cc1noc(C)c1NC(=O)N(C)C[C@H]1Oc2c(NC(=O)C3CCOCC3)cccc2C(=O)N([C@H](C)CO)C[C@H]1C	0.1
C[C@@H]1CN([C@H](C)CO)C(=O)Cc2cc(NC(=O)NC3CCCCC3)ccc2O[C@H]1CN(C)Cc1ccncc1	-1.0
[N-]=[N+]=NCC(=O)N1CCN(c2ccccc2)CC1	1.3&-0.5
COc1ccc(S(=O)(=O)N(C)C[C@H]2Oc3ccc(NC(=O)CCCN(C)C)cc3C(=O)N([C@H](C)CO)C[C@@H]2C)cc1	0.3
C[C@@H]1CN([C@@H](C)CO)C(=O)c2cccc(NC(=O)c3ccc(-c4nccs4)cc3)c2O[C@@H]1CN(C)Cc1ccccc1	0.9
C[C@H](CO)N1C[C@H](C)[C@H](CN(C)Cc2ccc(C(F)(F)F)cc2)Oc2ccc(NC(=O)c3ccncc3)cc2CC1=O	0.3
Cc1nc(S(=O)(=O)N[C@H]2CCN(Cc3cccc(OCCO)c3)C2)cn1C	1.2

Continuation:
SMILES | A1 apoptosis 2
C[C@H](CO)N1C[C@H](C)[C@H](CN(C)C(=O)Nc2ccccc2)Oc2ncc(C#CC(C)(C)O)cc2C1=O | -0.3
C[C@@H]1CCCCO[C@H](CN(C)C(=O)Nc2ccc(F)cc2)[C@H](C)CN([C@@H](C)CO)C(=O)c2cc(NC(=O)C3CCCCC3)ccc2O1 | 1.5
CCCN(C)C[C@@H]1OCCCC[C@@H](C)Oc2ccc(NC(=O)C3CCCCC3)cc2C(=O)N([C@H](C)CO)C[C@@H]1C | 0.6
C[C@@H]1CCCCO[C@@H](CN(C)S(C)(=O)=O)[C@@H](C)CN([C@@H](C)CO)C(=O)c2cc(NS(=O)(=O)c3ccccc3)ccc2O1 | 0.4
C[C@@H]1CN([C@@H](C)CO)C(=O)Cc2cc(NC(=O)CCC(F)(F)F)ccc2O[C@H]1CN(C)Cc1ccc(C(F)(F)F)cc1 | 0.0
C[C@@H]1CCCCO[C@@H](CN(C)Cc2ccc3c(c2)OCO3)[C@H](C)CN([C@H](C)CO)C(=O)c2cc(NS(=O)(=O)c3cn(C)cn3)ccc2O1 | 1.1
COc1ccc(CN(C)C[C@H]2OCCCC[C@@H](C)Oc3ccc(NC(=O)Nc4ccc5c(c4)OCO5)cc3C(=O)N([C@@H](C)CO)C[C@@H]2C)cc1 | 1.0
C[C@@H]1CCCCO[C@H](CN(C)S(=O)(=O)c2ccccc2)[C@@H](C)CN([C@H](C)CO)C(=O)c2cc(NC(=O)Nc3ccc(C(F)(F)F)cc3)ccc2O1 | 0.0
COc1cc(Br)cc(/C=N/NC(=O)c2cccc(C(=O)NO)c2)c1O | -3.1
Cc1noc(C)c1S(=O)(=O)Nc1ccc2c(c1)C(=O)N([C@H](C)CO)C[C@H](C)[C@H](CN(C)Cc1ccc(Cl)c(Cl)c1)O2 | 0.0
